Assay outcomes from PubChem BioAssay.
GIV Gai3 FP – GIV-Galpha-i interaction inhibition; P08753; Galpha-i3/FITC-GIV peptide fluorescence polarization, 90 min; hits give low values; scaled: aluminum fluoride 0%, vehicle 100%; percent of control (FP), % (concentration not given with the values); 210,000 tested, 0.42% active; AID 1224905;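 active = replicate mean at 85% of control or lower, very high polarization wells dropped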;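 note: wells of about 15 µL received 100 nL stock; the first replicate is given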
Target sequence (P08753 whole entry, looked up): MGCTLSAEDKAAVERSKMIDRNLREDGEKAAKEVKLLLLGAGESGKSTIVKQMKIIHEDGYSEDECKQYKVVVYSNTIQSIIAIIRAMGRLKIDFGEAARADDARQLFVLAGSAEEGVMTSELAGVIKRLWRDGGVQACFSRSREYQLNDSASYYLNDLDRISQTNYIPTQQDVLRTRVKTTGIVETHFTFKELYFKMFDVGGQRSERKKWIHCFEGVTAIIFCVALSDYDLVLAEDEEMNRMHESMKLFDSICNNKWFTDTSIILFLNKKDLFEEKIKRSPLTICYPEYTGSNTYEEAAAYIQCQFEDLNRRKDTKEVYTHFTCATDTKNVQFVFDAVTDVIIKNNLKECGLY
* = called active by the depositor. Not all compounds are listed; the hit share may differ from the screen's.

SMILES	GIV Gai3 FP
COc1ccc(CCN=Cc2c(C)[nH]n(-c3ccc([N+](=O)[O-])cc3)c2=O)cc1OC	102
CC1=C(C(=O)OCCC(C)C)C(c2ccccc2I)NC(=O)N1C (centres undefined)	103
O=C(CSc1nc(Nc2ccc(F)c(F)c2)c2ccccc2n1)NCC1CCCO1 (centres undefined)	106
Cc1cc(NC(=O)C2CCCN(S(=O)(=O)c3cccc4cccnc34)C2)ccc1Br (centres undefined)	99
CC(C)c1ccc(N2C(=O)CSC23C(=O)N(CN2CCN(C(c4ccccc4)c4ccccc4)CC2)c2ccccc23)cc1 (centres undefined)	119
CCC12c3ccccc3C(c3ccccc31)C1C(=O)N(c3ccc(Cl)c(C(=O)O)c3)C(=O)C12 (centres undefined)	102
CCC(Sc1nc2ccccc2c(=O)n1CCC(=O)NCCc1ccc(OC)c(OC)c1)C(=O)NCCCOC (centres undefined)	105
Cc1nn(-c2nc3ccccc3o2)c2c1C(c1ccccc1)CC(=O)N2 (centres undefined)	101
CCOc1ccc(NS(=O)(=O)c2cc(C(=O)N3CCCC3)ccc2NCCc2ccc(Cl)cc2)cc1	110
Cc1ccc(NC(=O)c2sc3nc4c(c(-c5ccco5)c3c2N)CCC4)cc1	76*
CC1(C(=O)NCc2cccc(F)c2)CCCN(S(=O)(=O)c2ccc(C(C)(C)C)cc2)C1 (centres undefined)	101
CCN(CC)C(=O)c1ccc(-c2nc3cc(NS(=O)(=O)c4ccc(F)c(C)c4)ccc3n2C)cc1	101
Cc1nc(N2CCCCC2)c2c(C)c(C(=O)Nc3ccc(Cl)cn3)sc2n1	107
CCOC(=O)C1=CN(Cc2ccc(OC)cc2)C=C(C(=O)OCC)C1c1cc(OC)c(OC)cc1OC	104
O=C(c1ccc2ccnc(N3CCN(c4ccccc4)CC3)c2c1)N1CCN(c2ccccc2)CC1	102
CCOC(=O)c1c(C)oc2ccc(N(C(=O)c3ccc(C)cc3)S(=O)(=O)c3ccc(Br)cc3)cc12	112
C=CCNc1ncnc2c1cnn2-c1ccc(F)cc1	101
CS(=O)(=O)c1nc2ccc(NS(=O)(=O)c3ccc4c(c3)OCCO4)cc2s1	108
O=C(COc1ccccc1)N1CCN(C(=O)c2cc3cc(Br)ccc3[nH]2)CC1	102
COc1ccc(CN2CCCC2c2c(C)noc2C)cc1COCC(F)(F)F (centres undefined)	100
CCOC(=O)C1=C(C)N=c2s/c(=C/c3ccc([N+](=O)[O-])o3)c(=O)n2C1c1ccccc1OC(C)C (centres undefined)	112
CCOc1ccc(S(=O)(=O)NCc2ccc3c(c2)CCN3C(=O)c2ccc(F)cc2)cc1	99
CCc1cc(-c2csc(S(=O)(=O)N3CCN(c4cccc(Cl)c4)CC3)c2)on1	102
O=S(=O)(c1ccc(F)cc1)N1CCn2cccc2C1c1ccc(F)cc1 (centres undefined)	105
CCC(C)(NC)c1nnnn1-c1ccc(Cl)cc1 (centres undefined)	105
Cc1ccc(N2CCN(CC(O)c3ccc4c(c3)OCO4)CC2)cc1 (centres undefined)	102
CN1CCN(c2nc(-c3ccc(Br)cc3)nc3ccccc23)CC1	105
CC(=O)c1ccc(NC(=O)CSc2nnc(NC(=O)CSc3nnc4n(N)cnn34)s2)cc1	115
Brc1ccc(CN2C3=NCCN3c3ccccc32)cc1	108
O=C1c2sc3nnc(-c4cccs4)c(=O)n3c2C(=O)N1c1ccccc1	114

Laid out differently: results already given
structure: CCOC(=O)C1=C(C)N=c2s/c(=C/c3ccc([N+](=O)[O-])o3)c(=O)n2C1c1ccccc1OC(C)C (centres undefined)
  GIV Gai3 FP = 112

structure: CCOc1ccc(S(=O)(=O)NCc2ccc3c(c2)CCN3C(=O)c2ccc(F)cc2)cc1
  GIV Gai3 FP = 99

structure: CCc1cc(-c2csc(S(=O)(=O)N3CCN(c4cccc(Cl)c4)CC3)c2)on1
  GIV Gai3 FP = 102

Next compounds:
SMILES	GIV Gai3 FP
COc1cc(C2C(C(=O)N3CCOCC3)=C(C)NC3=C2C(=O)CC(C)(C)C3)ccc1OCc1ccccc1 (centres undefined)	99
COc1ccccc1NC(=O)Cn1cnc2sc(C(=O)N3CCN(c4ccccc4OC)CC3)c(C)c2c1=O	98
Cc1ccc(S(=O)(=O)n2c(SCc3cccc(F)c3)nc3ccccc32)cc1	114
COc1ccc(OC)c(NC(=O)c2cc(S(=O)(=O)N3CCN(c4ccccc4OC)CC3)ccc2F)c1	108
COc1cccc(OC(=O)c2cc3c(C)nn(-c4ccccc4)c3s2)c1	106
COc1ccc(Br)c(C(=O)Nc2c(C)nc3sccn3c2=O)c1	101
COc1ccc(Br)cc1S(=O)(=O)n1c([N+](=O)[O-])cnc1C	108
O=C(Nc1cnc(N2CCN(c3ccccc3)CC2)c(C(=O)O)c1)c1cccc(Cl)c1	113
O=c1c(-c2nc3ccccc3s2)coc2cc(OCc3ccc([N+](=O)[O-])cc3)ccc12	104
Cn1cc2c(N3CCSCC3)nc(C(=O)NCc3cccs3)nc2n1	101

In the list so far, these contain a COOH group.
SMILES	GIV Gai3 FP
CCC12c3ccccc3C(c3ccccc31)C1C(=O)N(c3ccc(Cl)c(C(=O)O)c3)C(=O)C12 (centres undefined)	102
O=C(Nc1cnc(N2CCN(c3ccccc3)CC2)c(C(=O)O)c1)c1cccc(Cl)c1	113

(next part)
SMILES	GIV Gai3 FP
CCOC(=O)CSc1n[nH]c(-c2ccco2)n1	104
O=C1/C(=C/c2ccc([N+](=O)[O-])cc2)C=C(c2ccccc2)N1c1ccccc1	119
COc1cccc(S(=O)(=O)Nc2ccc(C3(C(=O)NCCC(C)C)CCC3)cc2)c1	100
Cc1ccc(-c2ccc(NCCC3=CCCCC3)nn2)cc1S(=O)(=O)N1CCCCC1	102
Cc1ccc(-c2noc(C3CC3)n2)cc1S(=O)(=O)N1CCC(C(=O)N2CCOCC2)CC1	101
CCCOc1ccc2c(c1)C(=O)c1cc(O)ccc1-2	103
NS(=O)(=O)c1ccc(NC(=O)c2ccc(=O)n(Cc3ccccc3Cl)c2)cc1	108
CCOC(=O)CC(=O)CSc1nc2c(sc(=S)n2-c2ccccc2OC)c(=O)n1Cc1ccco1	103
CC1(C)CC(=O)C2=C(C1)Nc1ccc3ccccc3c1C2c1ccccc1F (centres undefined)	116
COc1ccc(CSc2ccc(S(=O)(=O)N3CCc4ccccc43)cc2C(=O)NCC2CCCO2)cc1 (centres undefined)	105
Cc1ccc(NC(=O)c2sc3nc(C)nc(N4CCOCC4)c3c2C)c(Br)c1	100
COc1ccc(Cl)cc1NC(=O)CSc1nnc(C(C)N2C(=O)COc3ccccc32)n1C (centres undefined)	103
CCOC(=O)c1c(NC(=O)Cn2c(-n3nc(C)cc3C)nc(C)c(C)c2=O)sc2c1CCCC2	105
Cn1c(=O)c2c(ncn2Cc2ccc(C(C)(C)C)cc2)n(C)c1=O	107
Cc1ccc(NC(=O)/C(=C/c2ccc3c(c2)OCO3)NC(=O)c2ccccc2Br)c(C)c1	117
COC(=O)C1=C(C(=O)OC)SC(=C2C(=S)C(C)(C)N(C(=O)c3ccccc3)c3ccc(C)cc32)S1	105
O=C(NCCCO)C(=O)Nc1cccc(C(F)(F)F)c1	124
CCCOc1ccc(NC(=O)C2CC(=O)N(CC)C(=Nc3cccc(F)c3)S2)cc1 (centres undefined)	109
CCOc1ccc(N2C(=O)NC(=O)/C(=C/c3ccc(N(CC)CC)cc3OC)C2=O)cc1	163
CCCCn1c(CNC(=O)c2ccco2)nnc1SC(C)C(=O)Nc1sc(C(=O)OCC)c(C)c1C(=O)OCC (centres undefined)	107
CCOc1ccccc1-c1noc(CSc2nc3cc(-c4ccccc4)sc3c(=O)n2C)n1	100
Cc1ccc(C2C(C#N)=C(SCC(=O)Nc3cccc(C)c3C)NC3=C2C(=O)CCC3)o1 (centres undefined)	102
CCCS(=O)(=O)Nc1ccc(Nc2nc(C)cc(N(C)C)n2)cc1	102
CCOC(=O)C1C(=O)NC(SCC(=O)Nc2cc(OC)c(Cl)cc2OC)=C(C#N)C1c1ccccc1OC (centres undefined)	108
CC(C)(C)C1CCc2[nH]nc(C(=O)NC3CC3)c2C1 (centres undefined)	100
Cc1ccc(NC(=O)N2CCCC2c2c(C)noc2C)cc1Cl (centres undefined)	104
O=C(c1ccc([N+](=O)[O-])cc1)N1N=C2CCCCCC2C1(O)C(F)(F)F (centres undefined)	108
COC(=O)C1=C(C(=O)OC)SC(=C2C(=S)C(C)(C)N(C(=O)Cc3ccccc3)c3c(OC)cccc32)S1	117
NC(=O)c1ccc2c(c1)CCCN2C(=O)c1ccc(F)cc1	103
CN1CCc2nc(SCC(=O)OCc3ccccc3)c(C#N)c(-c3cccs3)c2C1	117
COc1cc(C2C(N3C(=O)c4ccc([N+](=O)[O-])cc4C3=O)C(=O)N2c2ccc(C)c(Cl)c2)cc(OC)c1OC (centres undefined)	111
CN(C)C(=O)c1nc(-c2ccsc2)nc2c1OCO2	105
CCC1(C)Cc2ccccc2C(c2c(C)[nH]n(-c3ccccc3)c2=O)=N1 (centres undefined)	112
O=C(CSc1nc2cc(C(=O)NCc3ccco3)ccc2c(=O)n1CC1CCCO1)c1ccccc1 (centres undefined)	109
CCN1C(=O)c2cccc3c(S(=O)(=O)N4CCN(CCO)CC4)ccc1c23	108
CCN(CC)C(=O)CSc1nc2ccccc2n1C(=O)NC1CCCCC1	110
CCN1CC2=C(OC(N)=C(C#N)C2c2ccc(OC)cc2)/C(=C/c2ccc(OC)cc2)C1 (centres undefined)	117
CCOc1ccc2c(c1)sc1nc(C(=O)OC)cc(=O)n12	105
CC(=O)c1cccc(NC(=O)C2CC2c2ccccc2)c1 (centres undefined)	110
O=C(OCCN(C1=NS(=O)(=O)c2ccccc21)c1ccccc1)C1CC(=O)N(c2ccccc2)C1 (centres undefined)	109
CCCS(=O)(=O)c1c(S(=O)(=O)CCC)c2cnccn2c1C(=O)c1ccc(C)cc1	109
O=C(Nc1cccc(Br)c1)C1Oc2ccccc2NC1=O (centres undefined)	100
CN1C(=O)N(C)C2(c3ccccc3)NC(=O)NC12c1ccccc1 (centres undefined)	111
CCCNC(=O)C(C)C1CCN(S(=O)(=O)c2cccs2)CC1 (centres undefined)	103
O=C(N/N=C\c1cn(-c2ccccc2)nc1-c1ccccc1)c1ccc(Br)cc1	104
CCN(C)c1ccc(C=Nc2c(C)n(C)n(-c3ccccc3)c2=O)cc1	113
COc1ccc(NS(=O)(=O)c2cc(-c3nc(-c4ccccc4)no3)sc2C)cc1	104
CC(C)c1cc(C2CCCN2C(=O)c2c(Cl)cnn2C)on1 (centres undefined)	94
CCOc1ccc(N=c2ssc3c2-c2ccc(C)cc2NC3(C)C)cc1	114
COc1ccc(OC)c(NC(=O)NC2COc3ccccc3C2)c1 (centres undefined)	109
Following part:
SMILES	GIV Gai3 FP
O=c1ccc(-c2ccc(F)cc2)nn1CCc1nc(-c2ccccc2Cl)no1	100
O=C(O)c1ccccc1/C=C1\SC(=S)N(c2ccc(O)cc2)C1=O	101
CN(CCc1noc(-c2ccc(C(=O)NCc3ccccc3)cc2)n1)C(=O)c1ccc(Cl)cc1	104
CC1=NN(c2ccc(Cl)c(C(=O)O)c2)C(=O)/C1=C/c1cn(Cc2ccccc2)c2ccccc12	101
Cc1ccc([N+](=O)[O-])cc1NC(=O)C(Cc1c[nH]c2ccccc12)NC(=O)Oc1ccccc1 (centres undefined)	111
O=C1CSC(c2cccc(Cl)c2Cl)N1c1ccccn1 (centres undefined)	100
CC1(C)CC(=O)c2c(oc3c2cc(NS(=O)(=O)c2ccccc2)c2ccccc23)C1	106
Cc1cc(N2CCOCC2)nc(N2CCN(C(=O)c3ccc(Br)cc3)CC2)n1	104
COc1ccc2c(c1OC)C(=O)OC2O (centres undefined)	102
Cc1c(Cl)c(C)c(C2=NON3N(C(=O)C(C)C)c4ccccc4N23)c(C)c1Cl	106

Looked up by compound from the list above, four records:
SMILES	GIV Gai3 FP
CC(C)c1cc(C2CCCN2C(=O)c2c(Cl)cnn2C)on1 (centres undefined)	94
COc1ccc(CSc2ccc(S(=O)(=O)N3CCc4ccccc43)cc2C(=O)NCC2CCCO2)cc1 (centres undefined)	105
COC(=O)C1=C(C(=O)OC)SC(=C2C(=S)C(C)(C)N(C(=O)c3ccccc3)c3ccc(C)cc32)S1	105
CC1(C)CC(=O)c2c(oc3c2cc(NS(=O)(=O)c2ccccc2)c2ccccc23)C1	106

The results go on.
SMILES	GIV Gai3 FP
Cc1ccc(Cc2nnc(-c3ccc(NC(=O)Nc4ccc(Cl)cc4)cc3)o2)cc1	102
O=c1ccc(-c2ccccc2)nn1CCc1nc(-c2ccc(Br)cc2)no1	109
Cn1nc(COCc2ccccc2)c2c1CCN(S(=O)(=O)c1ccc(Br)cc1)C2	104
CC1(C)Cc2ccccc2-c2nc(-c3ccccc3)n(Cc3ccccc3)c(=O)c21	117
COC(=O)C1=CN(CCOC23CC4CC(CC(C4)C2)C3)C=C(C(=O)OC)C1c1cccc(Cl)c1Cl	107
CCOC(=O)C1=C(C)N=c2s/c(=C/c3cc4c(cc3Cl)OCO4)c(=O)n2C1c1cccc(OC)c1 (centres undefined)	114
Cc1cc(-n2c(SCC(=O)Nc3ccc(C)c(Cl)c3)nc3n[nH]c(C)c3c2=N)ccc1Cl	104
COc1ccc(OC)c(NC(=O)CCc2c(C)nn(-c3ccc4nncn4n3)c2C)c1	100
Cc1cc(C)c(S(=O)(=O)Nc2cnc(N3CCNCC3)c(C(=O)NC3CCCC3)c2)c(C)c1	102
COCCCNC(=O)CSc1nc(Nc2ccc(F)cc2)c2ccccc2n1	114
CCCNC(=O)Cn1cnc2c(sc3nc(C)cc(C)c32)c1=O	102
CCOC(=O)c1ccccc1NC(=O)c1sc(NC(=O)CCCOc2ccc(Cl)cc2Cl)c(C(=O)OCC)c1C	101
COc1ccc(CNC(=O)CN2C(=O)CSc3sc(S(=O)(=O)N4CCCC4)cc32)cc1	102
CCOc1ccc(-n2nnc3c(N4CCN(C(=O)COC)CC4)ncnc32)cc1	100
